TRPML1 inh – human mucolipin-1 channel inhibition; TRPML1-inducible cells, Ca2+ dye fluorescence, FDSS; stronger effect = lower value; inhibition of EC80 agonist-evoked calcium signal; activity change, negative = inhibition, % (no concentration beside the values); actives 0.02% (n = 390,000); AID 624415; in the data active means activity change below about -50%; inconclusive means about -30% to -50%; inactive means above about -30%;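 also: stimulus is agonist 54-4 at its EC80 concentration; % is scaled to controls: 0 for no effect and ±100 for the full control effect; compound concentration not given in the record; the text of the record puts the active cut at -80%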
Target sequence (Q9GZU1 whole entry, looked up): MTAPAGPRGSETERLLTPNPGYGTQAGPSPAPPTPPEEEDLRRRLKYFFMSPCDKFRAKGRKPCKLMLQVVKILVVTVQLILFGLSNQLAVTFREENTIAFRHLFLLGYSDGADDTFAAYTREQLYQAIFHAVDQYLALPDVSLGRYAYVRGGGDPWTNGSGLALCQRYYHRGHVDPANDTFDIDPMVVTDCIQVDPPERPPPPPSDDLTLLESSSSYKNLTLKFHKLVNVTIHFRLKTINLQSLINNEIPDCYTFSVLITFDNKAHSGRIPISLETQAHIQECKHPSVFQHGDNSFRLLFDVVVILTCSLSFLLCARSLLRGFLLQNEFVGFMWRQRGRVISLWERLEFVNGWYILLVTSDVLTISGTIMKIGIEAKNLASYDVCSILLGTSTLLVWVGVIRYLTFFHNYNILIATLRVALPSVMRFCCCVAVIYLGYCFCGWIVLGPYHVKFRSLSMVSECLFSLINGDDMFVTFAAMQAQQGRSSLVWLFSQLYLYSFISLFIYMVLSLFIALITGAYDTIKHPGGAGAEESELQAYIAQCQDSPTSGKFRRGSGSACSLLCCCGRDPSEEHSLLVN
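Tet-induced TRPML1-DL cells loaded with Ca8 no-wash calcium dye were read kinetically on FDSS. Compound addition was followed by EC80 agonist 54-4 (4 uM final); inhibition was read over 110 s.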
TRPML1 agonist – activates the human TRPML1 channel; AID 624414; actives 0.12% (n = 410,000); activation, % (test concentration not listed); Q9GZU1; TRPML1-expressing cells, Ca2+ dye fluorescence, FDSS; host cell line not named in the record; reference of the full effect not given here; in the data active = activation above about 50%; inconclusive = about 30% to 50%; inactive = below about 30%; also: 0% is about no effect; the text of the record puts the active cut at 80%
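Tetracycline-induced TRPML1-DL cells are seeded and incubated overnight before loading with a no-wash Ca2+ dye and quencher. Agonist activity is taken from the 110 s fluorescence read following compound pin-transfer on an FDSS, before EC80 54-4 challenge.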
gsp antag – gsp mutant antagonism; gsp-mutant cells, cAMP HTRF, 30 min; control for the full effect not named in the record; Potency, µM (top dose mostly 76.9 µM), for inactives: at the top dose activity change, negative = inhibition, most hits filed as inhibitors; actives 0.4% (n = 340,000); AID 624288; active = falling curve of any shape with a large fitted effect; inconclusive = falling curve, mostly with a smaller effect; inactive = flat or rising curve; cell line not stated here;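 also: intracellular cAMP measured with PDE inhibitor Ro 20-1724 present during compound exposure; potency is read from the fitted curve at half-maximal effect; % is scaled to controls: 0 for no effect and ±100 for the full control effect; nearly all actives have a fitted effect of over 65% in size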
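HTRF cAMP measurement after 30 min RT detection following 30 min, 37C compound treatment alongside […] (added as 300 uM solution) in G418-selected cells seeded at 2000/well and grown 16–24 h.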
gsp agonist – agonists of gsp mutant (McCune-Albright syndrome). gsp mutant cells, cAMP HTRF, 30 min; control for the full effect not named in the record. actives 0.13% (n = 340,000). AID 624287. Potency, µM (top dose mostly 76.9 µM), without a hit: top-dose activation (cAMP increase), usual class: activators; active = well fitted activation curve with a large enough effect; inconclusive = small, poorly fitted or top-dose-only effect, or another doubt; inactive = no such curve, though single readings can be large or run the other way; cell line not stated here;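 also: phosphodiesterase inhibitor Ro 20-1724 added with compounds to block cAMP breakdown; potency is read from the fitted curve at half-maximal effect; nearly all actives have a fitted effect of over 60% in size; about a fifth of the inactives were tested at one dose only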
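Cells in DMEM/10% FBS with G418 were pretreated with compounds in DMSO plus […] (300 uM stock) for 30 min at 37C. cAMP was measured by HTRF (cAMP-d2 plus anti-cAMP antibody-K) after 30 min at room temperature.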
ClpP mod – qHTS Assay for Activators of ClpP. purified B. subtilis ClpP, FRET peptide cleavage, 20 min. Potency, µM (top dose mostly 57.5 µM), for the others: at the highest dose activity change, negative = active. actives 1.9% (n = 340,000); active = well fitted falling curve with a large enough effect; inconclusive = small, poorly fitted or top-dose-only effect; inactive = no such curve, though single readings can be large or run the other way; also: potency is read from the fitted curve at half-maximal effect; the source files actives as falling curves though it sought activators and does not explain the sign; nearly all actives have a fitted effect of over 65% in size; many hits overshoot -100%
Target sequence (P80244 whole entry, looked up): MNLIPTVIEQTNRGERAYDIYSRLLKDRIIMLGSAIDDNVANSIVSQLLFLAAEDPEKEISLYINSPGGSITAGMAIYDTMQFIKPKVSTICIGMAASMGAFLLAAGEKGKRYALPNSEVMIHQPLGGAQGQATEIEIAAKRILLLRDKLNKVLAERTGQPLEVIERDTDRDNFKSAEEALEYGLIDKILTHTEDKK
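Buffer: 100 mM Tris/HCl pH8, 100 mM KCl, 0.05% low protease BSA, 2.5% glycerol, 0.01% Tween-20. ClpP 10 microg/mL final; 20 min RT; delta FRET normalized to ADEP and DMSO controls.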
Menin-MLL FL inh – inhibitors of human menin-MLL interaction, wild-type MLL peptide. Fluorescence polarization, fluorescein-MLL peptide displacement from menin. FP activity change, % at 61.4 µM. 290,000 tested, under 10 active; inconclusive = falling polarisation curve, or a change in total fluorescence; inactive = total fluorescence flat and polarisation flat or rising; no compound was filed as active; the % refers to the polarisation; negative = inhibition;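 also: % of control where 0% means no effect; inhibitors lower the polarisation; unlabelled MLL peptide was the positive control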
Numbers without * were called inactive; ? = inconclusive; . = no result given; & = joins results of further samples; [ ] = remark or other dose. The order is random. About 2.1% of those tested had a hit in this group.

SMILES | TRPML1 inh | TRPML1 agonist | gsp antag | gsp agonist | ClpP mod | Menin-MLL FL inh
Cc1nn(C)cc1/C=N/NC(=O)CSc1ccccn1 | -3 | -0.1 | 18% | 1%[15.4 µM] | 1.1% | 1.6
O=C(COC(=O)c1c(F)cccc1F)Nc1cccc(S(=O)(=O)N2CCCCC2)c1 | -2 | -1.0 | . | -9% | 1.8% | .
CCCn1c(NC(=O)C23CC4CC(CC(O)(C4)C2)C3)nc2ccccc21 | 4 | -0.8 | 10% | 17% | 0.5% | 1.8
Cc1ccc(S(=O)(=O)NCC(=O)NCC2CCCCC2)cc1C | -12 | -0.8 | 3% | -3%[15.4 µM] | . | -3.3
CCC(C)(C)n1nnnc1CN(Cc1ccco1)Cc1cc2cc3c(cc2[nH]c1=O)OCO3 | -15 | -0.4 | ? | -36%[inhibitor] | 32µM* | ?
CC(=O)Nc1ccc(S(=O)(=O)NCC2CCC(C(=O)N3CC(C)CC(C)C3)CC2)cc1 (stereo unspecified) | 10 | 0.0 | -32% | 0%[15.4 µM] | -0.9% | 2.9
COc1ccc(-n2nc(C(=O)Nc3ccc(OC)c(OC)c3)c3c4ccccc4n(C)c3c2=O)cc1 | 13 | 1.1 | -4% | 9% | 3.4% | -1.9
O=C(C1CC(=O)N(c2ccc(Cl)cc2)C1)N1CCCCCC1 (stereo unspecified) | -9 | -0.6 | 2% | 3% | . | -1.8
COC(=O)c1cc(OC(=O)CCc2ccc(OC)c(OC)c2)cc(C(=O)OC)c1 | 5 | 0.3 | -2% | ? | . | -6.5
CCCNC(=O)Nc1ccc(F)c(Cl)c1 | -18 | 0.6 | 3% | -16% | . | -2.8
CCOc1cc(CN2CCN(C(=O)c3ccco3)CC2)ccc1OC | 2 | -0.7 | 3% | -48%[inhibitor] | -5.7% | -0.1
Cc1occc1C(=O)N1CCCC(Nc2ccc(C(C)C)cc2)C1 (stereo unspecified) | 1 | 1.5 | -4% | ? | -0.9% | -6.3
Cc1ccc(NS(=O)(=O)c2ccc(NC(=O)N3CCCCC3)cc2)cc1 | 16 | 0.3 | 12% | -2%[15.4 µM] | 0.8% | 0.1
CCC(C)c1c(O)nc(SCC(=O)N2CCCCCC2)[nH]c1=O (stereo unspecified) | -8 | -0.2 | 11% | ? | . | 3.7
NC/C(=N\O)c1ccc(Cl)cc1Cl | 28 | -0.2 | 1% | -15% | -2.5% | 1.6
FC(F)(F)c1nc2nccnc2[nH]1 | -12 | -0.9 | . | 24% | -12% | .
O=C1NN=C(c2ccc(Cl)cc2)CC1c1cccc(Cl)c1 (stereo unspecified) | 23 | 2.3 | 9% | -29% | 2.3% | -1.6
CC1CCCCC12NC(=O)N(CC(=O)Nc1cccc(S(=O)(=O)N3CCCCC3)c1)C2=O (stereo unspecified) | 55 | 2.7 | -2% | -20% | 0.2% | .
Cc1ccc2c(c1)n([O-])c1c([n+]2=O)CCCC1 | -11 | 0.3 | 0% | -26% | -3.5% | 4.2
CCc1ccc(NC(=O)C2CCN(c3c(N4CCCC4)c(=O)c3=O)CC2)cc1 | -1 | -0.5 | -9% | ? | -0.1% | -1.2
Nc1ccn(Cc2cccc(F)c2)n1 | 5 | 0.8 | 9% | -3% | 3.0% | -5.9
CC1CCC(C(=O)NC(C(=O)NCCc2ccc(S(N)(=O)=O)cc2)C(C)C)CC1 (stereo unspecified) | 5 | 0.9 | 8% | -10% | 0.5% | 13
COc1ccc(-c2cc(C(=O)Nc3cc(C)nn3-c3ccccc3)no2)cc1 | -7 | 0.6 | 3% | 2% | -10% | 5.7
CCCCc1c(CCC)c(=N)c2ccccc2n1C | 5 | -0.9 | 8% | 30% | 16µM* | 0.4
CCc1nnc(NC(=O)CSc2nccn2Cc2ccc(Cl)cc2)s1 | -7 | 1.1 | . | . | 0.7% | .
CCOC(=O)N1CCN(C(=S)NC)CC1 | 0 | 0.4 | 9% | 17% | 1.4% | 1.8
Clc1ccc(Cn2cc(/C=N/n3cnnc3)c3ccccc32)c(Cl)c1 | 19 | 0.5 | 4% | 8% | 0.5% | 3.1
CC(C)N(CCO)C(=O)CCc1nnc(CCCc2ccccc2)o1 | -9 | 0.3 | 10% | -19% | . | 0.0
C=CCn1c(=N)n(CC(=O)O)c2ccccc21 | 4 | 0.1 | 3% | -24% | -0.8% | 2.2
CCOC(=O)/C(=N/Nc1ccccc1)c1csc(Nc2ccccc2)n1 | -12 | 0.9 | 2% | 18% | 2.2% | 1.5
COc1ccc(Cl)cc1NC(=O)c1cccc(-n2cnnn2)c1 | -20 | 0.3 | -18% | 4% | 16% | .
Cc1ccc(/C=N/Nc2ccc3c(C(F)(F)F)cc(C(F)(F)F)nc3n2)cc1 | -6 | 0.6 | 11% | -17% | -4.0% | 0.5
COC(=O)[C@@H](Cc1ccccc1)NC(=O)NCCc1ccccc1 | -19 | 0.9 | 6% | -37%[inhibitor] | . | 0.8
Nc1nc(N)c(C=Nc2ccc(Br)cc2)c(Nc2ccc(Br)cc2)n1 | 8 | -0.1 | 2% | -32%[inhibitor] | -4.6% | -5.4
CC1CC(C)CN(CCCOc2ccccc2[N+](=O)[O-])C1 (stereo unspecified) | -30 | -0.2 | 8% | 23% | -1.6% | -1.1
O=C(/C=C/c1nc2ccccc2s1)N1CCCCCC1 | -2 | -0.4 | -12% | -7% | . | -0.2
CCOC(=O)C1=C(C)N(CCCC(=O)O)C(=O)NC1c1cccc(OC)c1 (stereo unspecified) | 7 | -0.5 | 8% | -3% | -0.2% | .
COc1cc(C(=O)Oc2c(Sc3ccc(C)cc3)c(C)nn2-c2ccccc2)cc(OC)c1OC | 6 | 1.2 | . | . | -3.9% | .
CN(C)C(=O)COc1ncnc2scc(-c3ccc(F)cc3)c12 | 7 | 0.2 | -2% | -20%[15.4 µM] | . | 1.4
O=S(=O)(NCc1csc(-c2cccs2)n1)c1ccccc1 | 1 | 1.1 | -6% | 7%[15.4 µM] | . | 2.8
CCCNC(=O)CN1C(=O)COc2ccc(S(=O)(=O)N3CCCC3)cc21 | 16 | 1.0 | . | . | 0.4% | .
CCC(=O)N(CC(=O)Nc1sc(C)c(C)c1C(N)=O)Cc1ccc(F)cc1 | 5 | 0.5 | -8% | -7%[15.4 µM] | . | -1.8
CCCCOc1ccc(-c2nn(-c3ccccc3)cc2C2NC(=O)NC(C)=C2C(=O)OC)cc1 (stereo unspecified) | 2 | 2.4 | . | . | -5.2% | .
CN1C(=O)[C@@H]2[C@H](C1=O)[C@@H]1C(=O)Nc3ccccc3C(=O)N1[C@@H]2c1ccc(F)cc1 | -1 | -0.8 | 7% | 15% | -9.8% | -13
CCN(CC)S(=O)(=O)c1ccc(N2CCOCC2)c(NC(=O)COc2ccccc2C#N)c1 | -7 | 0.8 | -4% | -62%[inhibitor] | 0.7% | 2.3
COc1ccc(CS(=O)(=O)CC(C)(O)c2ccccc2Cl)cc1 (stereo unspecified) | 7 | -0.5 | -6% | 11% | -1.1% | 1.9
Cc1ccc(NC(=O)C(Nc2ccccc2)c2ccccc2)cc1 (stereo unspecified) | 13 | 0.3 | -1% | 3%[15.4 µM] | . | 2.7
Cc1ccccc1S(=O)(=O)Nc1ncnc2scc(-c3ccccc3)c12 | 24 | 1.6 | 4% | 7% | 1.1% | -1.1
O=C(OCc1ccc(F)cc1)c1cc(S(=O)(=O)N2CCCCC2)ccc1N1CCOCC1 | 12 | 0.5 | 8% | ? | 0.8% | .
O=C(Nc1cccc(C(F)(F)F)c1)c1cc(-c2ccc(Cl)cc2)on1 | 12 | -0.6 | . | . | -0.9% | .
CCOC(=O)c1ccc(NC(=O)NC2CC3CCC(C2)N3Cc2nnnn2C(C)(C)C)cc1 (stereo unspecified) | -8 | 0.9 | 8% | 6% | 1.0% | 1.7
COc1cccc(C(=O)Nc2ccc3c(C)cc(=O)oc3c2)c1 | -1 | -0.4 | 5% | 17% | 3.9% | 3.8
Nc1ccc(-c2nnn(CC(=O)N3CCCCC3)n2)cc1 | -6 | 0.0 | -5% | 3% | -4.3% | -1.3
COc1ccc(CCNC(=O)c2ccc3c(c2)N(Cc2ccc(F)cc2)CCS3)cc1OC | 49&6 | 2.8&1.3 | ? | 2%[15.4 µM] | 3.7% | -4.6
C=CCSc1nnc2n(-c3ccccc3OC)c(=O)c3c4c(sc3n12)CCC4 | 11 | -0.8 | -15% | 0% | -1.5% | 2.3
C#CCOCCOCCOCCNc1nc(N2CCN(C(=O)[C@H]([C@@H](C)CC)n3cc([C@@H](N)CO)nn3)CC2)nc(N2CCN(C(=O)[C@H]([C@@H](C)CC)n3cc([C@@H](N)Cc4ccc(O)cc4)nn3)CC2)n1 | 11 | -0.6 | -3% | 25% | -0.4% | -14
FC(F)(F)c1nc2ccccc2n2c(-c3ccc(Cl)cc3)nnc12 | 7 | -0.2 | -19% | -28% | 13µM* | 2.5
COC(=O)CNC(c1ccccc1)c1cc(Br)ccc1NC(=O)c1ccccc1 (stereo unspecified) | 30 | 2.9 | . | . | ? | .
COc1ccc(Cn2cnc3c(NS(C)(=O)=O)c(C)c(C)cc32)cc1 | -3 | -0.6 | 8% | -43%[inhibitor] | 0.8% | 4.7
O=C(c1ccco1)N1CCN(C(c2ccc(F)cc2)c2nnnn2CC2CCCO2)CC1 (stereo unspecified) | -17 | 1.4 | -2% | 10% | -1.0% | -7.2

(more compounds)
SMILES | TRPML1 inh | TRPML1 agonist | gsp antag | gsp agonist | ClpP mod | Menin-MLL FL inh
COc1ccc(NC(=S)N2CCN(S(=O)(=O)c3ccc(OC)cc3)CC2)cc1 | -16 | 0.2 | -2% | -1% | -0.8% | .
CC(=O)Nc1nonc1-c1nc2ccccc2n1Cc1nnc(C)o1 | -4 | -0.4 | -2% | 30% | -18% | 4.8
Cc1cc(-c2ccccc2)cc(=O)[nH]1 | -16 | 0.6 | -28% | -10% | ? | .
CC(C)C(=O)Nc1ccc(N2CCCC2)cc1 | 17 | 3.3 | ? | -60%[inhibitor] | -2.4% | -4.7
CCCc1nc(SCC(=O)Nc2nccs2)c2ccccc2n1 | 24 | 0.7 | 5% | 16%[15.4 µM] | . | 4.5

Just TRPML1 inh, TRPML1 agonist and ClpP mod (two entries from above):
structure	TRPML1 inh	TRPML1 agonist	ClpP mod
CC(=O)Nc1nonc1-c1nc2ccccc2n1Cc1nnc(C)o1	-4	-0.4	-18%
Cc1cc(-c2ccccc2)cc(=O)[nH]1	-16	0.6	?
